Screens from PubChem.
MT1-MMP act inh – inhibitors of human MT1-MMP activation; P50281; HT1080 RFP-PRO-GFP cells, GFP/RFP ratio fluorescence, overnight; percent of plate control window, DMSO zero; GFP/RFP ratio change, % at 20 µM; 360,000 compounds, 0.061% hits; AID 651647;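 active means GFP/RFP ratio change of at least 30% with cell ATP level not reduced by more than half and red fluorescence within 50% of control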; further: strong numbers were not always called active
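Assay system – RFP-PRO-GFP reporter HT1080 cells · Compound dosing – single dose of 20 µM compound, 1% DMSO final · Incubation – overnight compound exposure at 37 °C · Measure – GFP/RFP fluorescence ratio · Benchmarks – DMSO wells and RFP-L50D-GFP cells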
CSC inhib – blocks cancer stem cells; 300,000 compounds, 1.1% hits; inhibition, % at 7.5 µM; cancer stem cell-like cells viability, luminescence;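 active means mean at 75% or more and at least half the replicates too; inconclusive means mean and replicates disagree; tested in HMLE shEcad cells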;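 further: 0% = median of negative and 100% = median of positive control wells; the first replicate is given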
PABP FP inh – blocks human PABP binding to poly(A) RNA; P11940; fluorescence polarization; inhibition, % at 35 µM; 290,000 compounds, 1% hits;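 active means 50% or more with normal probe brightness, or confirmed in later tests; inconclusive means above 50% with abnormal brightness, or retests that disagree; inactive means below 50% or failed in later tests; about a fifth of its hits are not listed in these tables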;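 further: calls also rest on retests at 20 µM and on dose response follow-up; controls were probe without protein and protein plus probe with vehicle; some compounds called inactive have numbers as strong as hits; many hits fall short of the cut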
Target sequence (P11940 whole entry, looked up): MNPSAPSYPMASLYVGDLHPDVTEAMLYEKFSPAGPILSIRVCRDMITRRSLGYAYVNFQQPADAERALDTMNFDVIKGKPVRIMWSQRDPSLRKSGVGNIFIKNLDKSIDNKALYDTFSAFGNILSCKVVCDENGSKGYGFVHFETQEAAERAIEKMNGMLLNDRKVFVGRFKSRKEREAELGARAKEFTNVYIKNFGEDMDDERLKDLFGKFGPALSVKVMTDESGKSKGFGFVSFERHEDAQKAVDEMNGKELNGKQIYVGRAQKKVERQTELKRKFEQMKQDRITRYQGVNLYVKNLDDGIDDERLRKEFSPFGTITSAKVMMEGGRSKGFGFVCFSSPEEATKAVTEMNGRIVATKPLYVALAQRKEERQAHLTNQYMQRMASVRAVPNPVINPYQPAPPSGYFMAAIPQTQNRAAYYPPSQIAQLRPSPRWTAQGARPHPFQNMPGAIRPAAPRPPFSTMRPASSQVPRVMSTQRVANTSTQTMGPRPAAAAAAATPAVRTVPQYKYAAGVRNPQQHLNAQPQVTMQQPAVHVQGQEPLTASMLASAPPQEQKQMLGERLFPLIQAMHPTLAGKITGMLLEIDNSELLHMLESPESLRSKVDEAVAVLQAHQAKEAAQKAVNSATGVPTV
Yeast UUG start – modulators of start codon recognition fidelity in yeast; activity score, % at 18.7 µM; 350,000 compounds, 0.13% hits; S. cerevisiae UUG-firefly luciferase reporter, luminescence/redox ratio;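 active means replicate mean at a twofold rise or more, about +100% in these data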;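 further: firefly luciferase made from a UUG start codon reports start codon fidelity; reporter light over untreated wells divided by growth signal over untreated wells; some hits fall short of that in this replicate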
eIF4H FP inh – inhibitors of RNA binding by human eIF4H | eIF4H fluorescence polarization binding assay | inhibition, % at 35 µM | 290,000 compounds, 0.94% hits;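 active means 50% or more with normal probe brightness, or confirmed in later tests; inconclusive means above 50% with abnormal brightness, or retests that disagree; inactive means below 50% or failed in later tests; about a fifth of its hits are not listed in these tables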;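 further: calls also rest on retests at 20 µM and on dose response follow-up; 0% = protein and probe with vehicle and 100% = probe without protein; strong numbers were not always called active; many hits fall short of the cut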
HIV Env fusion – inhibitors of HIV Env-mediated cell fusion; HeLa-JRFL Env/CEM21 cell fusion, luciferase; inhibition, % at 12.3 µM; 360,000 compounds, 1.1% hits;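 active means mean replicate inhibition score of at least 50 and every replicate individually at or above 50; inconclusive means only one of the two criteria met; inactive means mean below 50 and not all replicates reaching 50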;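 further: 0% = plate neutral controls and 100% = maraviroc near 300 nM; one replicate is shown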
Rce1 inhib – yeast Ras-converting enzyme inhibition; 290,000 compounds, 0.27% hits; calls only; yeast membranes, quenched prenylated peptide cleavage fluorescence; Q03530;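 active means fall in fluorescence gain of 50% or more versus controls, with final raw signal at or below 3038400; inconclusive means same 50% fall but final raw signal above 3038400; inactive means fall in fluorescence gain under 50%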;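 further: plate controls were neutral control wells for no effect and wells lacking membranes for full effect; tested at 10 µM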
eIF4H FP inh retest – further read-out of eIF4H FP inh, marked with its call; inhibition, %; compound at 20 µM; confirmation average;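 mean of two retest wells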
PABP FP inh retest – also measured in PABP FP inh; calls as there; inhibition, %; compound at 20 µM; confirmation repeats;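 mean of two retest wells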
MT1-MMP act inh RFP – second read-out of MT1-MMP act inh, no call of its own (marks repeat the call); RFP signal change, %; measured here: RFP expression control read;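 0 = vehicle wells; hits needed this value within 50% of zero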
* hit, by the source's call; i = inactive; ? = inconclusive; . = not tested or not shown. The order is random. Share with any hit: about 2.9%.

SMILES	MT1-MMP act inh	MT1-MMP act inh RFP	CSC inhib	PABP FP inh	Yeast UUG start	eIF4H FP inh	HIV Env fusion	Rce1 inhib	others
COc1ccc(-c2nn(CC(=O)N3CCCCC3)c(=O)c3ccccc23)cc1	.	.	-9	11	.	-8	.	i
COc1ccc(C(=O)NCC(=O)N/N=C/c2cccc(OC(=O)c3ccco3)c2)cc1OC	0	2	-5	1	.	4	13	i
CCOC(=O)c1csc(-c2sccc2Br)n1	-4	-4	-5	6	.	3	-66	i
CC(C)OC(=O)CC12CN(C)CC(CC(=O)OC(C)C)(CN(C)C1)C2=O	-1	0	-8	5	-13	-9	.	i
CNC(=O)c1[nH]cnc1C(=O)NCC(=O)OCc1ccccc1	3	3	-6	-6	-23	-18	-7	i
CO/N=C/c1cn(-c2ccc(Cl)cc2)nn1	.	.	-2	3	.	-3	-24	i
Cc1ccccc1OC(C)C(=O)Nc1cccnc1 (stereo not given)	-1	1	-5	7	-11	6	-3	i
CC1CC(C)CN(C(=O)c2ccc(Br)c(S(=O)(=O)N3CCOCC3)c2)C1 (stereo not given)	3	0	-10	.	-7	.	.	.
COc1cc(/C=N/N=C2/C(=O)Nc3ccccc32)ccc1O	-2	-3	-8	-14	-11	1	25	i
O=C(/C=C/c1ccco1)N/C(=C\c1ccco1)C(=O)NCCc1nc2ccccc2[nH]1	-7	1	-4	44*	.	77*	-8	i	eIF4H FP inh retest=98*;PABP FP inh retest=99*
COc1cc(C=O)c(Br)cc1OCC(=O)NCc1ccccc1	.	.	-14	1	-1	2	9	i
Cc1ccccc1NC(=O)CN(C)S(=O)(=O)c1cccs1	1	3	-22	2	-11	-4	3	i
CCOC(=O)C1(CCCCCCOc2ccc(Cl)cc2)CO1 (stereo not given)	.	.	2	2	.	12	.	i
Cc1ccccc1N1C(=O)c2ccccc2C1Nc1cccnc1 (stereo not given)	2	4	-1	13	-14	5	-10	i
Cc1ccc(NC(=O)CCC(=O)c2ccc(Br)cc2)cc1	-2	2	2	-14	-13	-5	-9	i
COc1ccc(/C(C#N)=C/c2c(-c3ccc(Cl)cc3)nc3c(C)cccn23)cc1	-10	-17	10	5	-15	-9	.	i
O=S(=O)(NCc1csc(-c2cccnc2)n1)c1ccc(F)cc1	-1	-2	4	-1	-20	-12	-13	i
CC(C)Cn1nc(NC(=O)C2CCCO2)c2cc3ccccc3nc21 (stereo not given)	6	-3	3	8	16	2	.	i
Cc1cc(/C=C2/NC(=O)NC2=O)c(C)n1-c1cccnc1	-4	-1	4	-14	-17	-4	-23	i
C=CCOc1ccc(/C=C2\SC(N)=NC2=O)cc1OC	-5	2	4	5	-10	-1	-8	i
COc1ccc(C(=O)N/N=C(\C)CC(=O)Nc2ccc3c(c2)OCO3)cc1	0	-2	-5	16	.	8	-32	i
CC(=O)Nc1ccc(NC(=O)COC(=O)c2c(C)nn(-c3ccccc3)c2C)cc1	3	4	-32	5	.	-3	-14	i
COc1cc(OC)c(NC(=O)CCNS(=O)(=O)c2ccc3c(c2)oc(=O)n3C)cc1Cl	0	-2	-14	-6	.	-7	9	i
O=C(O)c1cccc(N2C(=O)c3ccc(Oc4ccc(Cl)cc4)cc3C2=O)c1	2	1	-9	-9	.	1	8	i
COc1cc(S(=O)(=O)Nc2c(C)nn(C)c2C)ccc1NC(C)=O	5	5	-2	.	.	.	-194	i
COc1cc(CN2CCN(CC3CC3)CC2CCO)cc(OC)c1 (stereo not given)	1	-1	18	6	-11	9	0	i
COc1ccc(O)c(/C=C2/SC(=S)N(Cc3ccccc3)C2=O)c1	-17	4	43	?	-16	?	3	i
COc1ccc(CC(=O)Nc2nc(-c3ccncc3)cs2)cc1	-3	1	-43	-5	.	-10	-14	i
CN(C)c1ccc(NC(=O)Nc2nc(C(N)C3CCCCC3)cs2)cc1 (stereo not given)	-4	-6	.	.	-24	.	5	.
Cc1nn(S(=O)(=O)N2CCOCC2)c(C)c1Br	-1	-2	-4	-4	.	-7	5	i
Cc1ncc(CO)c2cc(C(=O)Nc3cccc(F)c3)c(=Nc3cccc(C(N)=O)c3)oc12	-5	1	3	3	8	-10	-6	i
COc1cccc(NC(=O)CSc2nnc(-c3cccnc3)o2)c1	-1	-1	-10	.	-14	.	.	i
CC1CCC(C(=O)NC(C(=O)NCCN2CCC(C)CC2)C(C)C)CC1 (stereo not given)	7	4	.	29	-14	2	-9	i
CC(C)(C)NS(=O)(=O)c1ccc(NC(=O)C2CCCO2)cc1 (stereo not given)	1	-1	-10	9	-1	10	13	i
O=C(C1CCCO1)N1CCc2ccccc21 (stereo not given)	9	6	-8	-2	-23	-7	-23	i
CCCn1nnc(NC(=O)c2ccc(OC)cc2)n1	0	-3	3	-6	-12	2	-447	i
CC1CC2(CC(C)(C(=O)CSc3n[nH]c(-c4ccccc4Cl)n3)OC2=O)C(=O)O1 (stereo not given)	3	0	-11	32	-5	-2	-17	i
CCCCCCC(=O)NC(Nc1ccc(S(N)(=O)=O)cc1)C(Cl)(Cl)Cl (stereo not given)	8	-5	-11	-4	.	0	.	i
O=C1CCC([N+](=O)[O-])C(c2ccccc2F)N1 (stereo not given)	1	2	3	-5	-9	-8	3	i
O=C1CCN(CCCc2ccccc2)CCN1[C@H](CO)Cc1ccccc1	5	1	2	-1	-1	-1	-2	i
Cc1ccccc1N(CC(=O)N1CCN(c2ccccc2)CC1)S(C)(=O)=O	-3	-1	-7	1	-11	-4	9	i
CCN1C(=O)N[C@@H](c2cccc(F)c2)C(C(C)=O)=C1C	-2	1	15	.	-9	.	6	i
CCOC(=O)N1CCN(C(=O)CN(Cc2ccccc2)S(=O)(=O)c2ccc(OC)c(C)c2)CC1	2	-1	-3	-11	-2	-4	.	i
COc1cccc(CNC(=O)c2ccc(S(=O)(=O)N3CCCC3)cc2)c1	5	5	-6	-3	.	-1	2	i
COc1cc(-n2c(C)nc3ncn(-c4ccccc4)c3c2=O)cc(OC)c1OC	-7	0	.	.	-1	.	7	.
Cc1cc(C)n2nc(SCC#N)nc2n1	6	1	.	1	-6	-1	15	i
CCN(CC(=O)Nc1c(F)cccc1F)C(=O)CN(C)S(=O)(=O)c1ccc(F)cc1	0	3	.	.	-14	.	-8	i
COc1ccc(CCNC(=O)Cn2c(=O)n(-c3cc(F)ccc3F)c(=O)c3sccc32)cc1OC	0	0	-6	-14	.	-5	1	i
CCOC(=O)N1CCN(CC(O)COc2ccccc2[N+](=O)[O-])CC1 (stereo not given)	0	0	-4	5	2	4	3	i
Cc1nn(CC(=O)c2ccccc2)c(=O)c2nn(-c3ccccc3F)c(C)c12	0	1	-4	1	.	3	2	?
CCCc1cc(=O)oc2cc(OC(C)C(=O)NCC3CCC(C(=O)O)CC3)c(Cl)cc12 (stereo not given)	2	3	-9	0	-14	-6	.	.
Cc1nc2c3cc(F)ccc3n(Cc3ccccc3F)c2s1	-4	-8	55	6	.	-6	-31	i
Cc1cc(NC(=O)CCCN2C(=O)/C(=C\c3cccs3)SC2=S)no1	10	6	3	0	-8	-4	3	i
N#CCCn1cc(C(=O)N2CCCCC2)c(-c2cccc([N+](=O)[O-])c2)n1	-1	1	.	-11	7	4	5	i
O=C(NCc1ccco1)C(Cc1ccccc1)NS(=O)(=O)c1cccc2nsnc12 (stereo not given)	-3	1	-8	7	-10	-1	-15	i
Cc1sc2nc(SCC(=O)Nc3ccc(S(=O)(=O)NCCCC(=O)O)cc3)[nH]c(=O)c2c1C	-4	4	5	-5	.	1	17	i
CC(=O)Nc1ccc(C=NNc2ccc(S(=O)(=O)Nc3ccccc3C(=O)O)cc2[N+](=O)[O-])cc1	13	5	-4	.	-13	.	0	.
Cc1ccc(-n2c(C)cc(C(=O)COC(=O)c3ccc[nH]c3=O)c2C)cc1C	3	-3	-4	26	.	55	8	i	eIF4H FP inh retest=-5;PABP FP inh retest=8
O=S(=O)(c1ccccc1)n1ccc2ccccc21	-2	2	-9	2	-7	4	.	i
COc1ccc(C2C(C#N)=C(N)OC3=C2C(=O)CC(C)(C)C3)cc1Cn1cc([N+](=O)[O-])cn1 (stereo not given)	6	-2	7	-4	.	6	6	i
CCn1ncc(/C=N/NC(=O)c2cc(Cl)ccc2OC)c1C	-3	1	-14	5	.	-2	.	i
COCCNC(=O)CS(=O)Cc1nc(-c2ccc(Cl)cc2)oc1C (stereo not given)	-3	1	-10	1	-15	11	5	i

Sorted by number of heavy atoms (largest number first): some entries from above
SMILES	MT1-MMP act inh	MT1-MMP act inh RFP	CSC inhib	PABP FP inh	Yeast UUG start	eIF4H FP inh	HIV Env fusion	Rce1 inhib	others
CC1CC(C)CN(C(=O)c2ccc(Br)c(S(=O)(=O)N3CCOCC3)c2)C1 (stereo not given)	3	0	-10	.	-7	.	.	.
COc1cc(CN2CCN(CC3CC3)CC2CCO)cc(OC)c1 (stereo not given)	1	-1	18	6	-11	9	0	i
CCN1C(=O)N[C@@H](c2cccc(F)c2)C(C(C)=O)=C1C	-2	1	15	.	-9	.	6	i

In the list so far, 8 have fluorine.
SMILES	MT1-MMP act inh	MT1-MMP act inh RFP	CSC inhib	PABP FP inh	Yeast UUG start	eIF4H FP inh	HIV Env fusion	Rce1 inhib	others
O=S(=O)(NCc1csc(-c2cccnc2)n1)c1ccc(F)cc1	-1	-2	4	-1	-20	-12	-13	i
Cc1ncc(CO)c2cc(C(=O)Nc3cccc(F)c3)c(=Nc3cccc(C(N)=O)c3)oc12	-5	1	3	3	8	-10	-6	i
O=C1CCC([N+](=O)[O-])C(c2ccccc2F)N1 (stereo not given)	1	2	3	-5	-9	-8	3	i
CCN1C(=O)N[C@@H](c2cccc(F)c2)C(C(C)=O)=C1C	-2	1	15	.	-9	.	6	i
CCN(CC(=O)Nc1c(F)cccc1F)C(=O)CN(C)S(=O)(=O)c1ccc(F)cc1	0	3	.	.	-14	.	-8	i
COc1ccc(CCNC(=O)Cn2c(=O)n(-c3cc(F)ccc3F)c(=O)c3sccc32)cc1OC	0	0	-6	-14	.	-5	1	i
Cc1nn(CC(=O)c2ccccc2)c(=O)c2nn(-c3ccccc3F)c(C)c12	0	1	-4	1	.	3	2	?
Cc1nc2c3cc(F)ccc3n(Cc3ccccc3F)c2s1	-4	-8	55	6	.	-6	-31	i
